# Screens: PubChem BioAssay, Broad Institute
# Env fusion inh: blocks HIV Env-driven cell-cell fusion; HeLa-JRFL Env/CEM21 cell fusion, luciferase; inhibition, % at 12.3 µM; hit rate 1.1% among 360,000;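 active = mean replicate inhibition score of at least 50 and every replicate individually at or above 50; inconclusive = only one of the two criteria met; inactive = mean below 50 and not all replicates reaching 50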;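 note: 0% = plate neutral controls and 100% = maraviroc near 300 nM; one replicate is shown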
# Yeast UUG start: yeast start codon fidelity modulation; S. cerevisiae UUG-firefly luciferase reporter, luminescence/redox ratio; activity score, % at 18.7 µM; hit rate 0.13% among 350,000; AID 602363;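 active = replicate mean at a twofold rise or more, about +100% in these data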;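 note: firefly luciferase made from a UUG start codon reports start codon fidelity; reporter light over untreated wells divided by growth signal over untreated wells; some hits fall short of that in this replicate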
# Starred values were filed as active, the others as inactive; u = inconclusive; [ ] = dose if it differs, or a comment. This is a subset (hit frequency here may not be typical).
SMILES,Env fusion inh,Yeast UUG start
Cc1ccc(S(=O)(=O)N(C)C[C@H]2Oc3c(NC(=O)NC4CCCCC4)cccc3C(=O)N([C@H](C)CO)C[C@H]2C)cc1,-39[16.7 µM],5
CCC(=O)N1C[C@@H](C)[C@@H](OC)CN(C)C(=O)c2ccc(NC(=O)COC)cc2OC[C@H]1C,15[16.7 µM],-6
C[C@H]1CCCCO[C@@H](CN(C)Cc2ccc3c(c2)OCO3)[C@@H](C)CN([C@@H](C)CO)C(=O)c2cc(NC(=O)Nc3ccc(F)cc3)ccc2O1,48[16.7 µM],18
C/C=C/c1ccc2c(c1)O[C@@H](CN(C)CC1CC1)[C@@H](C)CN([C@H](C)CO)S2(=O)=O,17[16.7 µM],-7
C[C@@H]1CN([C@@H](C)CO)S(=O)(=O)c2ccc(C3=CCCC3)cc2O[C@@H]1CN(C)S(=O)(=O)c1ccc(F)cc1,42[16.7 µM],-16
O=C(C[C@H]1C[C@H]2c3cc(NC(=O)c4ccc5c(c4)OCO5)ccc3O[C@H]2[C@@H](CO)O1)NCc1ccc(Cl)cc1,28[16.7 µM],-18
NCC[C@H]1CC[C@@H](NC(=O)C2CCCC2)[C@H](CO)O1,-10[16.7 µM],-11
C[C@@H]1CCCCO[C@H](CN(C)S(=O)(=O)c2ccc(Cl)cc2)[C@@H](C)CN([C@H](C)CO)C(=O)c2cc(NC(=O)c3ccccc3)ccc2O1,-2[16.7 µM],-3
C[C@@H]1CCCCO[C@H](CN(C)C(=O)Nc2ccccc2)[C@H](C)CN([C@H](C)CO)C(=O)c2cc(NC(=O)Cc3ccccc3)ccc2O1,-70[16.7 µM],11
C[C@H](CO)N1C[C@H](C)[C@@H](CN(C)C(=O)Nc2ccc3c(c2)OCO3)Oc2ccc(N(C)C)cc2C1=O,5[16.7 µM],6
C[C@H](CO)N1C[C@H](C)[C@H](CN(C)CC2CC2)Oc2ccc(NC(=O)C3CC3)cc2C1=O,19[16.7 µM],-4
Cc1ccc(S(=O)(=O)Nc2ccc3c(c2)C(=O)N([C@@H](C)CO)C[C@@H](C)[C@H](CN(C)C(=O)Nc2cccc4ccccc24)OCCCC[C@H](C)O3)cc1,7[16.7 µM],-12
C[C@@H]1CN([C@@H](C)CO)C(=O)c2cc(-c3cccc(F)c3)cnc2O[C@@H]1CN(C)Cc1cncnc1,1[16.7 µM],-3
COc1cccc(NC(=O)N[C@@H]2CC[C@@H](CC(=O)N3CCOCC3)O[C@H]2CO)c1,8[16.7 µM],-7
C[C@H]1CN([C@@H](C)CO)S(=O)(=O)c2ccc(-c3ccc(F)cc3)cc2O[C@@H]1CN(C)C(=O)C1CCCCC1,37[16.7 µM],11
Cc1ccc(S(=O)(=O)N[C@@H]2C=C[C@@H](CC(=O)NCCCN(C)C)O[C@@H]2CO)cc1,-1[16.7 µM],2
C[C@@H]1CN([C@H](C)CO)C(=O)c2cc(NC(=O)NC3CCCCC3)ccc2O[C@@H](C)CCCCO[C@H]1CN(C)C(=O)NC1CCCCC1,13[16.7 µM],20
C[C@H]1CCCCO[C@H](CN(C)S(=O)(=O)c2cccs2)[C@@H](C)CN([C@@H](C)CO)C(=O)c2cc(NS(=O)(=O)c3ccc(Cl)cc3)ccc2O1,5[16.7 µM],11
CCC(=O)N(C)C[C@@H]1Oc2ncc(-c3ccccc3C)cc2C(=O)N([C@@H](C)CO)C[C@H]1C,-12[16.7 µM],1
C[C@@H]1CCCCO[C@H](CN(C)C(=O)Cc2ccccc2)[C@@H](C)CN([C@H](C)CO)C(=O)c2cc(NS(=O)(=O)c3ccccc3)ccc2O1,-40[16.7 µM],9
CCCNC(=O)C[C@@H]1C[C@@H]2c3cc(NS(=O)(=O)c4ccc(F)cc4)ccc3O[C@@H]2[C@H](CO)O1,-4[16.7 µM],10
CC(C)CC#Cc1ccc2c(c1)O[C@H](CN(C)C(=O)Cc1cccnc1)[C@H](C)CN([C@@H](C)CO)S2(=O)=O,-16[16.7 µM],-3
C[C@H](CO)N1C[C@H](C)[C@@H](CN(C)Cc2ccncc2)OCCCC[C@H](C)Oc2ccc(NC(=O)Nc3cccc4ccccc34)cc2C1=O,-12[16.7 µM],5
O=C(NCC[C@H]1CC[C@@H](NC(=O)c2ccncc2)[C@H](CO)O1)Nc1ccc(Cl)cc1,-188[16.7 µM],-11
COc1ccc(S(=O)(=O)N(C)C[C@@H]2Oc3ccc(NS(C)(=O)=O)cc3C(=O)N([C@H](C)CO)C[C@H]2C)cc1,10[16.7 µM],-6

# Of the compounds above, 5 have nitrogen in an aromatic ring.
SMILES,Env fusion inh,Yeast UUG start
C[C@@H]1CN([C@@H](C)CO)C(=O)c2cc(-c3cccc(F)c3)cnc2O[C@@H]1CN(C)Cc1cncnc1,1[16.7 µM],-3
CCC(=O)N(C)C[C@@H]1Oc2ncc(-c3ccccc3C)cc2C(=O)N([C@@H](C)CO)C[C@H]1C,-12[16.7 µM],1
CC(C)CC#Cc1ccc2c(c1)O[C@H](CN(C)C(=O)Cc1cccnc1)[C@H](C)CN([C@@H](C)CO)S2(=O)=O,-16[16.7 µM],-3
C[C@H](CO)N1C[C@H](C)[C@@H](CN(C)Cc2ccncc2)OCCCC[C@H](C)Oc2ccc(NC(=O)Nc3cccc4ccccc34)cc2C1=O,-12[16.7 µM],5
O=C(NCC[C@H]1CC[C@@H](NC(=O)c2ccncc2)[C@H](CO)O1)Nc1ccc(Cl)cc1,-188[16.7 µM],-11

# (next part)
SMILES,Env fusion inh,Yeast UUG start
C[C@H](CO)N1C[C@H](C)[C@H](CN(C)S(=O)(=O)c2cn(C)cn2)Oc2ccc(NC(=O)C3CC3)cc2CC1=O,7[16.7 µM],7
C[C@@H]1CCCCO[C@@H](CN(C)S(=O)(=O)c2cn(C)cn2)[C@@H](C)CN([C@@H](C)CO)C(=O)c2cc(NS(=O)(=O)c3ccc(F)cc3)ccc2O1,-2[16.7 µM],24
Cc1nn(C)c(=S)[nH]c1=S,-158,-11
C[C@H]1CN([C@@H](C)CO)S(=O)(=O)c2ccc(C3=CCCC3)cc2O[C@@H]1CN(C)Cc1cccc(C(=O)O)c1,3[16.7 µM],13
CNC[C@H]1Oc2ccc(NS(C)(=O)=O)cc2C(=O)N([C@H](C)CO)C[C@H]1C,-10[16.7 µM],-20
C[C@@H]1CN([C@H](C)CO)S(=O)(=O)c2ccc(Br)cc2O[C@@H]1CN(C)Cc1ccccc1,-23[16.7 µM],-7
COc1ccc(S(=O)(=O)N(C)C[C@@H]2Oc3ccc(NC(=O)Nc4ccc(C(F)(F)F)cc4)cc3CC(=O)N([C@@H](C)CO)C[C@@H]2C)cc1,-29[16.7 µM],-11
CNC(=O)C[C@H]1CC[C@@H]2[C@@H](COc3ccc(NC(=O)C4CCCCC4)cc3C(=O)N2C)O1,-17[16.7 µM],7
CC(C)NC(=O)Nc1ccc2c(c1)CC(=O)N([C@@H](C)CO)C[C@H](C)[C@H](CN(C)Cc1ccc(-c3ccccc3)cc1)O2,-70[16.7 µM],0
O=C(CCN1CCCCC1)N[C@H]1CC[C@H](CCNS(=O)(=O)c2ccccc2)O[C@@H]1CO,-4[16.7 µM],-1
C[C@@H]1CCCCO[C@H](CN(C)C(=O)CCCN(C)C)[C@@H](C)CN([C@H](C)CO)C(=O)c2cc(NC(=O)Nc3ccc(C(F)(F)F)cc3)ccc2O1,u,13
C[C@@H]1CN([C@H](C)CO)C(=O)c2cc(/C=C/c3ccccc3)cnc2O[C@@H]1CN(C)C(=O)C1CCCCC1,-7[16.7 µM],1
O=C(C[C@H]1CC[C@H](NC(=O)c2ccccn2)[C@H](CO)O1)NCc1cc(F)cc(F)c1,11[16.7 µM],-3
C[C@@H]1CN([C@@H](C)CO)C(=O)c2cc(C#Cc3ccccc3F)cnc2O[C@H]1CN(C)S(=O)(=O)c1ccccc1,-14[16.7 µM],-7
COc1ccc(CN(C)C[C@@H]2Oc3ccc(NC(=O)CCC(F)(F)F)cc3CC(=O)N([C@@H](C)CO)C[C@@H]2C)cc1,-6[16.7 µM],-1
C[C@@H]1CN([C@H](C)CO)C(=O)Cc2cc(NC(=O)Nc3ccc(C(F)(F)F)cc3)ccc2O[C@@H]1CN(C)Cc1ccc2c(c1)OCO2,1[16.7 µM],9
C[C@H]1CN([C@@H](C)CO)C(=O)c2cc(NS(=O)(=O)c3cn(C)cn3)ccc2O[C@@H]1CN(C)C(=O)Nc1ccccc1,-14[16.7 µM],-5
C[C@@H]1CN([C@H](C)CO)C(=O)Cc2cc(NC(=O)Nc3ccccc3)ccc2O[C@H]1CN(C)Cc1ccccc1,-19[16.7 µM],-5
C[C@@H]1CN([C@@H](C)CO)C(=O)c2cc(C3=CCCCC3)cnc2O[C@@H]1CN(C)C(=O)Cc1cccnc1,20[16.7 µM],-10
Cc1noc(C)c1NC(=O)N(C)C[C@@H]1Oc2c(NC(=O)Nc3ccccc3)cccc2C(=O)N([C@H](C)CO)C[C@H]1C,1[16.7 µM],5
CCCC(=O)Nc1ccc2c(c1)C(=O)N(C)[C@H]1CC[C@@H](CC(=O)NC3CCCC3)O[C@@H]1CO2,8[16.7 µM],3
C[C@@H]1CN([C@@H](C)CO)C(=O)Cc2cc(NS(C)(=O)=O)ccc2O[C@H]1CN(C)Cc1ccc2c(c1)OCO2,-13[16.7 µM],-5
COc1ccc(-c2cnc3c(c2)C(=O)N([C@@H](C)CO)C[C@@H](C)[C@H](CN(C)C(=O)Cc2cccnc2)O3)cc1,-14[16.7 µM],-13
CCCNC(=O)C[C@@H]1C[C@@H]2c3cc(NC(=O)Nc4ccccc4)ccc3O[C@@H]2[C@H](CO)O1,16[16.7 µM],2
C[C@@H]1CN([C@H](C)CO)C(=O)c2cccc(NC(=O)C3CC3)c2O[C@H]1CN(C)S(C)(=O)=O,13[16.7 µM],11

# More results:
SMILES,Env fusion inh,Yeast UUG start
O=C(Cc1ccccn1)N[C@H]1CC[C@H](CCNC(=O)c2cc(Cl)cc(Cl)c2)O[C@@H]1CO,7[16.7 µM],12
Cc1ccc(S(=O)(=O)Nc2ccc3c(c2)CC(=O)N([C@@H](C)CO)C[C@@H](C)[C@H](CN(C)S(=O)(=O)c2ccc(Cl)cc2)O3)cc1,-11[16.7 µM],-3
COc1ccc(CN(C)C[C@@H]2OCCCC[C@@H](C)Oc3ccc(NC(=O)Nc4ccc(OC)cc4)cc3C(=O)N([C@H](C)CO)C[C@@H]2C)cc1,21[16.7 µM],-1
CC(C)NC(=O)Nc1ccc2c(c1)C(=O)N([C@H](C)CO)C[C@@H](C)[C@H](CN(C)S(=O)(=O)c1cccs1)O2,11[16.7 µM],8
CCNC(=O)C[C@H]1CC[C@@H](NC(=O)C2CCOCC2)[C@@H](CO)O1,14[16.7 µM],-7
COCC#Cc1ccc2c(c1)O[C@@H](CN(C)CC1CC1)[C@@H](C)CN([C@@H](C)CO)S2(=O)=O,-20[16.7 µM],5
CCCC#Cc1cnc2c(c1)C(=O)N([C@H](C)CO)C[C@@H](C)[C@@H](CN(C)C(=O)NCCC)O2,10[16.7 µM],-1
C/C=C/c1ccc2c(c1)O[C@@H](CN(C)C(=O)COC)[C@H](C)CN([C@H](C)CO)S2(=O)=O,2[16.7 µM],-8
CNC[C@@H]1Oc2cc(C#Cc3ccc(OC)cc3)ccc2S(=O)(=O)N([C@H](C)CO)C[C@H]1C,-5[16.7 µM],1
COc1ccc(CN(C)C[C@H]2OCCCC[C@@H](C)Oc3ccc(NS(C)(=O)=O)cc3C(=O)N([C@@H](C)CO)C[C@H]2C)cc1,-13[16.7 µM],-6
C[C@H](CO)N1C[C@H](C)[C@H](CN(C)C(=O)Nc2cccc3ccccc23)OCCCC[C@H](C)Oc2ccc(NS(=O)(=O)c3cccs3)cc2C1=O,37[16.7 µM],-9
Cc1ccc(S(=O)(=O)Nc2ccc3c(c2)C(=O)N([C@@H](C)CO)C[C@H](C)[C@@H](CN(C)C(=O)NC(C)C)O3)cc1,8[16.7 µM],5
CS(=O)(=O)Nc1ccc2c(c1)[C@@H]1C[C@@H](CC(=O)NCC(F)(F)F)O[C@H](CO)[C@@H]1O2,-4[16.7 µM],6
C[C@@H]1CCCCO[C@H](CN(C)Cc2ccncc2)[C@@H](C)CN([C@H](C)CO)C(=O)c2cc(NC(=O)Nc3ccc(F)cc3)ccc2O1,13[16.7 µM],-5
O=C(N[C@@H]1CC[C@H](CC(=O)N2CCN(c3ccccc3)CC2)O[C@@H]1CO)c1ccccc1,0[16.7 µM],5
O=C(C[C@@H]1C[C@H]2c3cc(NC(=O)Nc4ccccc4F)ccc3O[C@H]2[C@@H](CO)O1)NCc1cc(F)ccc1F,-4[16.7 µM],-6
O=C(CC1CC1)Nc1ccc2c(c1)[C@@H]1C[C@@H](CC(=O)N3CCOCC3)O[C@H](CO)[C@@H]1O2,-3[16.7 µM],-4
Cc1noc(C)c1S(=O)(=O)Nc1ccc2c(c1)C(=O)N([C@@H](C)CO)C[C@@H](C)[C@H](CN(C)C(=O)NC(C)C)OCCCC[C@@H](C)O2,-1[16.7 µM],-15
COc1cccc(NC(=O)N[C@@H]2C=C[C@@H](CC(=O)NCc3ccccn3)O[C@@H]2CO)c1,-41[16.7 µM],-13
C[C@@H]1CCCCO[C@@H](CN(C)C(=O)Cc2ccccc2)[C@@H](C)CN([C@@H](C)CO)C(=O)c2cc(NS(=O)(=O)c3ccc(F)cc3)ccc2O1,-7[16.7 µM],-7

# Some of these compounds in order of their number in Yeast UUG start, falling.
SMILES	Yeast UUG start
Cc1noc(C)c1NC(=O)N(C)C[C@@H]1Oc2c(NC(=O)Nc3ccccc3)cccc2C(=O)N([C@H](C)CO)C[C@H]1C	5
CCC(=O)N(C)C[C@@H]1Oc2ncc(-c3ccccc3C)cc2C(=O)N([C@@H](C)CO)C[C@H]1C	1
COc1ccc(S(=O)(=O)N(C)C[C@@H]2Oc3ccc(NC(=O)Nc4ccc(C(F)(F)F)cc4)cc3CC(=O)N([C@@H](C)CO)C[C@@H]2C)cc1	-11
